Bioassay records deposited in PubChem by ICCB-Longwood Screening Facility, Harvard Medical School.
Bm FixLJ act: activators of Burkholderia fixLJ two-component system, primary screen, B. multivorans, GFP reporter; B. multivorans fixK-promoter GFP reporter, 18 h; stronger effect = higher value; z-score (no concentration beside the values); 29,000 tested, 0.3% active; AID 1918990, 2023;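 active means replicate mean overnight rise in green fluorescent reporter signal, 3 or more SD over negative controls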;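 further: score is relative to vehicle wells of the plate; 300 nL library stock went into each well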
* marks the source's active call; other numbers are inactive results; & = joins results of further samples.

SMILES,Bm FixLJ act
O=C(c1ccc(NCCCN2CCCc3ccccc32)nc1)N1CCOCC1,-0.24
COc1ccccc1Nc1nn2c(=O)c3ccc(C(=O)N4CCCC(C)C4)cc3nc2s1 (stereo not drawn),-5.3
COc1ccc(-c2cc(C(=O)N3CCCCC3C)no2)cc1OC (stereo not drawn),-1.5
CC(C)c1nc(CN(C)C(=O)c2cc(COc3ccccc3)[nH]n2)no1,0.68
C=CCN1CC(C(=O)Nc2ccccc2CCC(=O)NC)CC1=O (stereo not drawn),-1.3
CCOC(=O)c1c(Oc2ccc(C(C)=O)cc2)nnc(-c2ccccc2)c1-c1ccccc1,-1.1
CC(=O)Nc1ccc(NC(=O)Nc2sc3nc4n(c(=O)c3c2C)CCC(C)CC4)cc1 (stereo not drawn),-1.2
CCOc1ccc(NS(=O)(=O)c2ccc3c4c(cccc24)C(=O)N3)cc1,-1.6
Cc1cccn2c(Nc3ccc4c(c3)OCCO4)c(-c3ccc(Br)o3)nc12,1.1
COc1cc(Cl)c(C)cc1NC(=O)c1sc2nc(C)cc(C)c2c1N,-1.4
CCc1ccccc1NC(=O)CSc1nc2c(oc3ccccc32)c(=O)n1-c1ccccc1F,-0.96
Cc1ccc(-n2c(=O)c3ccc(C(=O)NCc4ccccc4Cl)cc3n(CC(=O)Nc3cccc(F)c3)c2=O)cc1,-0.07
CCOc1ccc(NC(=O)C2CCC(CNS(=O)(=O)c3ccc(Br)s3)CC2)cc1 (stereo not drawn),-1.6
Cc1cc(C)cc(NC(=O)CCCn2c3ccccc3c(=O)c3ccccc32)c1,-0.37
CC(=O)Nc1ccc2nc(CN3Cc4cnc(C(C)(C)C)nc4C3)ccc2c1,-1.8
CC(C)c1ccc(OCC(=O)N(Cc2cccs2)C2CCS(=O)(=O)C2)cc1 (stereo not drawn),-1.8
Cc1ccc2oc(=O)c3cnn(CC(=O)N4CCN(c5ccc(F)cc5)CC4)c3c2c1,-1.5
CN1CCC[C@]2(CO)CCN(C(=O)CCS(=O)(=O)c3ccccc3)C[C@@H]12,-0.62
COCCCN(Cc1ccco1)C(=O)c1cc2c(s1)-c1ccccc1OC2,-1.5
Cc1ccc(C)c(Cn2c(=O)n(CCCC(=O)NCCc3ccc(Cl)cc3)c(=O)c3ccccc32)c1,1.7
COc1c(Cl)cc(C(=O)Nc2cccc(-c3nc4ccccc4[nH]3)c2)cc1Cl,0.7
COCc1nc(N2CCC(CCO)CC2)c2cnn(C)c2n1,1
Cc1cccc(Cn2c(CNC(=O)c3ccccc3)nc3ccccc32)c1,-2.3
COc1ccc(-c2csc(=Nc3ccccc3)n2CCO)cc1F,-1.4
COc1ccc(CCNC(=O)Cc2c(C)c3cc4c(C)coc4c(C)c3oc2=O)cc1,-0.22
O=C(c1cc(C2CC2)[nH]n1)N1CCc2c(nc(-c3ccncc3)[nH]c2=O)C1,-0.29
O=C(COc1ccccc1Cl)Nc1ccc(-c2nc3ccccc3s2)cc1,-1.2
COc1ccc(-n2nc3cc(C)c(NC(=O)c4ccc(-c5ccc(Br)cc5)o4)cc3n2)cc1,-1.2
Cc1ccc(NCc2cccn2-c2nnc(N3CCC(C(=O)NCCc4ccccc4)CC3)s2)cc1,0.31
O=c1oc2ccc(Br)cc2cc1-c1nc(-c2ccccc2)no1,1.1
COc1ccc(NC(=O)CCc2nnc3n(C)c(=O)c4sccc4n23)cc1Cl,0.72
O=C(CSc1c2c(nc3ccc(Cl)cc13)CCCC2)N1CCN(c2cccc(Cl)c2)CC1,-0.41
CCOC(=O)c1cnc2ccc(OC)cc2c1Nc1cccc(C(C)=O)c1,-1.2
Nc1nonc1-c1nc2ccccc2n1CC(=O)Nc1ccc(F)cc1,-0.14
Cn1ccnc1CN1CCN(Cc2ccncc2)C2CS(=O)(=O)CC21 (stereo not drawn),-0.77
COCCCN1CCC(O)[C@]2(CCCN(C(=O)CCC(C)C)C2)C1 (stereo partly drawn),-0.58
Cc1cc(OCC(=O)Nc2sc3c(c2C#N)CCC(C)C3)ccc1Cl (stereo not drawn),-1
Cc1ccc(C)c(Nc2cc(C(=O)NCCCN(C)C3CCCCC3)c3ccccc3n2)c1,-0.2
CCOC(=O)CSc1nc(-c2ccc(OCC)cc2)cc(C(F)(F)F)c1C#N,-6
COc1ccc(Cl)cc1NC(=O)CSC1=Nc2ccccc2C2=NC(CCC(=O)NCc3ccco3)C(=O)N12 (stereo not drawn),-2.4
CNC(=O)CC1CCN(C(=O)COc2ccc(Cl)cc2)C1 (stereo not drawn),-0.29
CCn1cc(C(=O)NCCCOC)c(=O)c2cc(S(=O)(=O)N3CCc4ccccc4C3)ccc21,-1.1
O=C(c1cccc(O)c1)N1CC2OC(=O)N(CCCN3CCOCC3)C2C1 (stereo not drawn),-0.04
COc1cccc(S(=O)(=O)N2CCC(O)C(C(=O)O)C2)c1 (stereo not drawn),0.36
O=C(O)C1=C(CSc2nnnn2CS(=O)(=O)O)CS[C@@H]2C(NC(=O)[C@H](O)c3ccccc3)C(=O)N12 (stereo partly drawn),0.04
Cc1cccc(C)c1NC1=NCCCS1,-1.3&-0.22
Cc1cccc(C)c1NC(=O)CN(C)S(=O)(=O)c1ccc2c(c1)n(C)c(=O)c(=O)n2C,-2.4
O=C(NCc1nccn1Cc1ccccc1)[C@@]12CCC(N3CCOCC3)C[C@H]1CCNC2 (stereo partly drawn),-0.11
CCN(C(=O)c1nn(-c2ccc(OC)c(Cl)c2)c(=O)c2c1c1ccccc1n2C)c1cccc(C(F)(F)F)c1,-0.82
CCC(Sc1nnc2c3ccccc3n(C)c2n1)C(=O)Nc1nnc(C(C)C)s1 (stereo not drawn),-2.4

Following part:
SMILES,Bm FixLJ act
COc1ccccc1NC(=O)C1=C(C)Nc2nc(-c3ccco3)nn2C1c1ccccc1F (stereo not drawn),-0.11
CC(=O)N1CCC(NC(=O)c2c(C)[nH]c3c2C(=O)CCC3)C(O)C1 (stereo not drawn),0.68
Cn1cc(CCn2ccnc2-c2cccc(OCCO)c2)cn1,0.32
CCNc1cc(N2CCN(C3CCCCC3)CC2)c2noc3c2c1C(=O)c1ccccc1-3,-1.1
Cc1ccc(NC(=O)Cn2cc(C(=O)C3CC3)c3ccccc32)c(C)c1,-1.4
Cc1cccc(CCNC(=O)c2ccc(-c3cn(C(F)F)nc3C)cc2)n1,-0.81
CCCSc1nc2sc3c(c2c(=O)n1-c1ccccc1)CCC(C)C3 (stereo not drawn),-1.5
Cc1ccc2oc3c(c(=O)c2c1)C(c1ccc(F)cc1)N(c1nc(C)c(C)s1)C3=O (stereo not drawn),-0.29
Cc1ccc(-c2cn(-c3cccc(Cl)c3)c(S(=O)(=O)CC(=O)Nc3ccccc3F)n2)cc1,0.92
O=C(CSc1oc(-c2ccccc2)nc1S(=O)(=O)c1ccc(Cl)cc1)c1ccccc1,-1.1
COc1cc(C(=O)OCCCN2CCCN(CCCOC(=O)c3cc(OC)c(OC)c(OC)c3)CC2)cc(OC)c1OC,0.08
COc1cccc(-c2nnc(SCC(=O)N3CCc4ccccc43)o2)c1,-0.68
CCCc1ncncc1C(=O)NCCc1nc(C(=O)O)cs1,-0.87
Cc1ccc(Cn2cc(C(=O)c3ccc(F)cc3)c(=O)c3cc4c(cc32)OCCO4)cc1,-0.93
COc1ccc(OC)c(C2CC(=O)Nc3c2c(=O)[nH]c2nc4ccccc4n32)c1 (stereo not drawn),1.1
O=c1c2c3c(sc2n(Cc2cc(=O)n4ccccc4n2)c(=O)n1-c1ccccc1)CCC3,0.24
Cc1nc2nncn2c(NCc2ccc(Cl)cc2)c1C,-2
CC(C)Oc1ccccc1C1C=C(C(=O)O)Nc2ncnn21 (stereo not drawn),-1.5
COc1ccc(-c2c(C)nn3c(N4CCN(c5cc(Cl)ccc5C)CC4)cc(C)nc23)cc1OC,-1.7
O=C(Cn1c(=O)oc2ccccc21)NCc1cccc(Cl)c1,-0.25
Cc1nn(-c2ccccc2)c2sc(C(=O)Nc3ccccc3Br)cc12,0.06
COc1cccc(NC(=O)C2CCN(c3nnc(-n4c(C)ccc4C)s3)CC2)c1,-0.68
CCOC(=O)c1c(NC(=O)/C(C#N)=C/c2ccc(OC)cc2)sc2c1CCC2,-1.1
CCCN(CCC)c1ccc(C2N=C(N)Nc3nc4ccccc4n32)cc1 (stereo not drawn),-0.81
COc1ccccc1CCNC(=O)Cc1c(C)c2c(cc(C)c3c(C)c(C)oc32)oc1=O,-1.3
CCc1ccc(C(=O)N2CC(CO)C(CN(C)CCO)C2)cc1 (stereo not drawn),-0.95
CCc1nn(CC(=O)Nc2cccc(C)c2C)c(=O)c2cc3sccc3n12,-0.49
Cc1nn(C)c(C)c1C(C)NC(=O)N1CCCN(Cc2ccc(F)cc2)CC1 (stereo not drawn),-0.73
CCC1CN(c2nc(C)ccc2C#N)CCC(=O)N1Cc1ccccc1 (stereo not drawn),-0.51
COc1cccc(NC(=O)N2CCN(C(=O)c3nsc4ccccc34)CC2)c1,-1.2

Next part, starting with the last 7 of the part before.
SMILES,Bm FixLJ act
CCCN(CCC)c1ccc(C2N=C(N)Nc3nc4ccccc4n32)cc1 (stereo not drawn),-0.81
COc1ccccc1CCNC(=O)Cc1c(C)c2c(cc(C)c3c(C)c(C)oc32)oc1=O,-1.3
CCc1ccc(C(=O)N2CC(CO)C(CN(C)CCO)C2)cc1 (stereo not drawn),-0.95
CCc1nn(CC(=O)Nc2cccc(C)c2C)c(=O)c2cc3sccc3n12,-0.49
Cc1nn(C)c(C)c1C(C)NC(=O)N1CCCN(Cc2ccc(F)cc2)CC1 (stereo not drawn),-0.73
CCC1CN(c2nc(C)ccc2C#N)CCC(=O)N1Cc1ccccc1 (stereo not drawn),-0.51
COc1cccc(NC(=O)N2CCN(C(=O)c3nsc4ccccc34)CC2)c1,-1.2
COc1ccc(CNC(=O)CCc2nc3cccnc3n2Cc2ccc(OC)cc2)cc1,-0.82
CC(C)c1csc(C(=O)N2CC3c4ccccc4OC[C@]3(C(=O)O)C2)n1 (stereo partly drawn),-3
Cc1nn(CCCC(=O)NCc2ccccc2)c(=O)c2cc3sccc3n12,-0.62
NC(=O)c1ncn([C@@H]2O[C@H](CO)[C@@H](O)[C@H]2O)n1,-1.1
CCOCCC(=O)N1CCC[C@@]2(CN(Cc3cccc(F)c3)CCC2O)C1 (stereo partly drawn),-1.2
COc1ccc(N2CCN(C(=O)Nc3ccc(Cl)cc3)CC2)cc1,-0.08
COc1ccc(CN2CCCC(c3ncc[nH]3)C2)cc1C(=O)O (stereo not drawn),1.4
O=C(NCCCN1CCN(c2ccccc2F)CC1)c1cc2c(s1)-c1ccccc1OC2,-1.1
CC(C)N1CCC(C(=O)NCCNC(=O)c2ccncc2)CC1,-0.87
CC(=O)N1CCc2c(sc3c2c(=O)n(-c2ccccc2)c(=O)n3Cc2cccc(C(F)(F)F)c2)C1,-0.76

Rewritten with each value named: part of the list above
> NC(=O)c1ncn([C@@H]2O[C@H](CO)[C@@H](O)[C@H]2O)n1
- Bm FixLJ act: -1.1
> CCOCCC(=O)N1CCC[C@@]2(CN(Cc3cccc(F)c3)CCC2O)C1 (stereo partly drawn)
- Bm FixLJ act: -1.2
> COc1ccc(N2CCN(C(=O)Nc3ccc(Cl)cc3)CC2)cc1
- Bm FixLJ act: -0.08

Next section.
SMILES,Bm FixLJ act
COC(=O)c1ccccc1NC(=O)CSc1nc2nc(C)cc(C)n2n1,-0.13
CCc1ccc(NC(=O)[C@H](Cc2ccccc2)N2Cc3ccccc3C2=O)cc1,-0.93
CCc1ccc(CNC(=O)CSCc2cnn(-c3ccccc3)c2-n2cccc2)cc1,0.73
O=C(c1csc(-c2cccs2)n1)N1Cc2cnn(CCO)c2C1,-0.17
COC(=O)c1nc2n(n1)C(c1cccc(Cl)c1)C(C(=O)Nc1ccccc1OC)=C(C)N2 (stereo not drawn),0.24
CCOC(=O)c1nc(Nc2ccc(C(=O)OC(C)C)cc2)c2ccccc2n1,0.21
CCOc1ccc(C(=O)Nc2ccc(-c3nc4cc(C(C)C)ccc4o3)cc2)cc1Cl,-0.08
c1ccc(-c2nnc(CN3CCN(c4ccccc4)CC3)o2)cc1,-0.54
Cc1ccc(C(=O)N/C(=C\c2cn(S(=O)(=O)N(C)C)c3ccccc23)C(=O)NCCCn2ccnc2)cc1,-1.8
COc1ccc(OC)c(NC(=O)Cn2c(CCC(=O)O)ccc2-c2ccccc2)c1,0.36
CC(NC(=O)C1CCN(S(=O)(=O)c2ccc3c(c2)oc(=O)n3C)CC1)c1ccccc1 (stereo not drawn),-0.69
Cc1cc(OCC(=O)Nc2ccc(C(=O)OC3CCCCC3)cc2)ccc1Cl,-1.4
COc1ccccc1NC(=O)c1sc2nc(N3CCOCC3)c3c(c2c1N)CC(C)(C)OC3,-1.5
CCn1cc(/C=C(\NC(=O)c2ccc(OC)c(OC)c2)C(=O)NCCCn2ccnc2)c2ccccc21,-1.7
COc1ccc(C2NC(=O)NC(C)=C2C(=O)Nc2cc(C)cc(C)c2)c(OC)c1 (stereo not drawn),-2.1
CN(CCCNC(=O)c1cnc2ccccn2c1=O)C1CCCC1,-2
CCc1ccc(Nc2nc(N)nc(CSc3nc4ccccc4s3)n2)cc1,-1.5
CCOC(=O)c1cccc(NC(=O)c2cc3cc4ccc(C)cc4nc3o2)c1,-0.24
Cc1nc(SCC(=O)Nc2ccc(Br)cc2)[nH]c(=O)c1Cc1ccccc1,-0.55
CCCCc1ccc(NC(=O)Cn2cnc3c2c(=O)n(C)c(=O)n3C)cc1,-0.21
CC(C)(O)c1ccccc1CC[C@@H](SCC1(CC(=O)O)CC1)c1cccc(/C=C/c2ccc3ccc(Cl)cc3n2)c1,-1.9

Only part of the results is shown, so the mix of outcomes need not match the whole.
